E coli growth: blocks Escherichia coli growth. OD600, 23 h; active compounds read low. OD600 absorbance (concentration not given with the values). hit rate 0.21% among 330,000;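 active = OD600 absorbance below the run mean of sample wells minus 3.6 SD, in any replicate, cut at about 0.56 in these data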;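 also: stock transfer was 300 nL into about 60 µL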
RanGTP-Imp inh: inhibitors of RanGTP-importin-beta interaction, primary screen, biochemical, FRET, CFP-Ran, YFP-importin-beta, homogeneous | cell-free CFP-Ran/YFP-importin-beta FRET ratio | inhibition, % (no concentration beside the values) | hit rate 1.1% among 300,000 | AID 2216;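 active = most replicates above 15%; inconclusive = exactly half above 15%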;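 also: 0% = DMSO wells and 100% = Ran loaded with GDP instead of GTP; wells of about 40 µL received 100 nL stock; the first replicate is given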
MLL AF4-AF9 inh: inhibitors of human MLL-AF4/AF9 interaction; inhibition, % at 10 µM; P42568; AID 651704; hit rate 0.47% among 350,000; AlphaScreen, biotin-AF4 peptide binding to FLAG-AF9;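 active = every replicate reaching a set inhibition limit, whatever the replicate mean, cut at about 25% in these data; inconclusive = mean inhibition reaches that limit but some replicates miss it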;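 also: 0% = plate neutral control median and 100% = total signal loss; the record names both 10 and 1 µM as test concentration; the first replicate is given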
Target sequence (P42568 whole entry, looked up): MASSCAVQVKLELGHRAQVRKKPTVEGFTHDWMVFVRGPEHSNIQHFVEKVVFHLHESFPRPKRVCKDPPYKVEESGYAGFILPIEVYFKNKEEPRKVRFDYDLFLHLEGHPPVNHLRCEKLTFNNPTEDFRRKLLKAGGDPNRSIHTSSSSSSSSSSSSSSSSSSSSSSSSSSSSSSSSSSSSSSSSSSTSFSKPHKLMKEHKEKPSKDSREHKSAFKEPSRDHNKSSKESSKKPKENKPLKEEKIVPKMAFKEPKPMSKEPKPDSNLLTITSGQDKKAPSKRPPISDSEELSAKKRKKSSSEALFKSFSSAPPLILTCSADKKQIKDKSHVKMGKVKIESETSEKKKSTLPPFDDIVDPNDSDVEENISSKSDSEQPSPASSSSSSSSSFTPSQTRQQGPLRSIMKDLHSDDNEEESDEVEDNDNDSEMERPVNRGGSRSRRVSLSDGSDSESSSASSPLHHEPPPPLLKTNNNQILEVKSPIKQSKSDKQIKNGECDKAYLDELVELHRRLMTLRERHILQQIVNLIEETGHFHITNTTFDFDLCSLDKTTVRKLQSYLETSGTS
Vif A3G: inhibitors of Vif binding to APOBEC3G peptide, primary screen, biochemical, TR-FRET, GST-Vif 1-94, biotin-A3G peptide, dose response retest (AID 1117319); TR-FRET GST-Vif / biotin-A3G peptide binding; higher % means a stronger effect; test concentration not given here; strong numbers were not always called active; one-dose inhibition, %; IC50 in µM for titrated hits; hit rate 0.57% among 260,000;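 active = above the screen mean plus three standard deviations and confirmed in dose response; inconclusive = results disagree or hit not tested in dose response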;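 also: Vif residues 1-94 fused to GST binding biotinylated APOBEC3G peptide 110-148; 0% = full assay without inhibitor and 100% = GST in place of GST-Vif; retest series ran down from 100 µM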
UCH37 inh: blocks the human deubiquitinase UCH37; Q9Y5K5; purified proteasome/UCH37, Ub-AMC cleavage fluorescence; inhibition, % (concentration not given with the values); hit rate 0.33% among 330,000; AID 588478;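 active = mean of two replicates above 20%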;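 also: 0% = compound-free wells with enzyme and 100% = wells lacking proteasome; stock transfer was 100 nL into about 20 µL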
Target sequence (Q9Y5K5 whole entry, looked up): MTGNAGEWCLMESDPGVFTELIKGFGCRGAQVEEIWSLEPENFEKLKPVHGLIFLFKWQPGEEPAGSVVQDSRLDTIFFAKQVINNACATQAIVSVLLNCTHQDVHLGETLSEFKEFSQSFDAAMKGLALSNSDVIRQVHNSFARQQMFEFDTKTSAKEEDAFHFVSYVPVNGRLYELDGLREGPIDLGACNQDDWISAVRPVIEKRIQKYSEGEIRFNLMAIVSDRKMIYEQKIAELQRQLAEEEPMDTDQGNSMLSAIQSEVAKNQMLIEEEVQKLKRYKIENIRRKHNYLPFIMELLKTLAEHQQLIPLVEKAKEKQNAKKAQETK
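assay system = human UCH37 enzyme supplied as purified proteasome complex | amount = proteasome at 0.15 nM in the dispensed enzyme solution | schedule = 30 min compound-proteasome preincubation then 25 min substrate reaction, room temperature | measured by = fluorescence, ex 355 nm, em 460 nm | benchmarks = no-proteasome wells (full inhibition) and compound-free wells (no inhibition)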
HNF4A DNA FP: change in binding of human HNF4 alpha to DNA; P41235; HNF4a-FITC DNA binding, fluorescence polarization, 1 h; activity change, % at 10 µM; hit rate 0.3% among 360,000; in the data active = activity change above about 30%, passing the limit was not always enough;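 also: controls were the assay level and a saturating level of protein; the project sought stronger binding though the title names inhibitors; some compounds called inactive have numbers as strong as hits; positive values seem to mean higher polarization but the record does not say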
FGF22 binding: FGF22 (human) thermal shift binding | calls only at 9.99 µM | AID 651658 | hit rate 1.5% among 340,000 | recombinant FGF22 thermal shift, SYPRO orange fluorescence; percent of sucrose octasulfate shift, DMSO zero | Q9HCT0;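 active = melting point raised past a set limit in the mean and every replicate; inconclusive = no clear call; three in four hits are not shown here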
Target sequence (Q9HCT0 whole entry, looked up): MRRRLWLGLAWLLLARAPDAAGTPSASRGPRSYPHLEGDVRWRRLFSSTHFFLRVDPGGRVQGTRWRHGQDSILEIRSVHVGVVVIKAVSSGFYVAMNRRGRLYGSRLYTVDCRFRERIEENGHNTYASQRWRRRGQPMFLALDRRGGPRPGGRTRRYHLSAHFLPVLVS
An asterisk follows results filed as active; i = inactive; ? = inconclusive; . = no result given.

Compound | E coli growth | RanGTP-Imp inh | MLL AF4-AF9 inh | Vif A3G | UCH37 inh | HNF4A DNA FP | FGF22 binding
Cc1ccc(-c2nnc(N3CCN(C(=O)CSc4ncn[nH]4)CC3)c3ccccc23)cc1 | 0.67 | . | . | -3% | 4.1 | -0.6 | .
CC(C)(CNC(=O)c1cccc(F)c1)CNC(=O)c1cccc(F)c1 | 0.63 | -1.2 | -1.7 | . | 6.5 | 0.6 | i
COc1ccc(C(=O)CSc2nnc(-c3ccccn3)n2Cc2ccco2)cc1 | 0.72 | 0.8 | . | 3% | 2.8 | 1.5 | .
Cc1ccc(Nc2nc(-c3c(C)n(C)n(-c4ccccc4)c3=O)c(C)s2)cc1 | 0.68 | -3.0 | . | 2% | 2.3 | 1.5 | .
CCCCOC(=O)C(C)Nc1n[nH]c(=S)[nH]c1=O (stereo unspecified) | 0.7 | 1.0 | . | -4% | 7.7 | . | .
CC1(C)CC(CC(=O)NNc2nc(-c3ccccc3)cs2)C(=O)O1 (stereo unspecified) | 0.67 | 3.9 | . | . | 2.7 | 3.3 | .
CNC(=O)c1ccccc1Nc1ccc(SC(F)F)cc1 | 0.64 | 8.5 | 2.1 | . | 3.7 | -0.7 | i
CCOC(=O)C1CCN(C(=O)CCc2nnc3ccc(NCCCN4CCCC4=O)nn23)CC1 | 0.68 | -3.1 | -0.4 | . | -2.6 | -3.3 | i
O=C(OCc1cc(=O)n2cc(Br)ccc2n1)c1ccc(Cl)c(S(=O)(=O)NCc2ccccc2)c1 | 0.71 | 3.0 | -6.0 | -30% | -8.7 | 1.9 | i
COC(=O)C1CCN(C(=O)Cc2ccc(OC)c(OC)c2)CC1 | 0.67 | -2.6 | . | 20% | 5.6 | 2.3 | .
O=C(CSC1CC(=O)N(c2ccc(C(=O)O)cc2)C1=O)Nc1ccc(Cl)cc1 (stereo unspecified) | 0.66 | -1.2 | 0.6 | 13% | 7.3 | -1.9 | .
O=S(=O)(c1ccc(Br)s1)N1CCN(c2ccc(F)cc2)CC1 | 0.65 | 4.5 | -9.5 | . | 1.8 | 14 | i
COC(=O)c1ccc(O)c(Sc2cc(C(=O)OC)ccc2O)c1 | 0.66 | -2.3 | . | -4% | 1.3 | 2.7 | .
CCOC(=O)c1cccc(NC(=O)c2cccnc2)c1 | 0.67 | 1.2 | . | 2% | 0.7 | -0.8 | .
O=C(CSc1ccc(F)cc1)NC12CC3CC(CC(C3)C1)C2 | 0.69 | 1.4 | -2.0 | . | 4.2 | 0.9 | i
CCCCCCCCCn1cc(C(C)=O)c(=O)[nH]c1=O | 0.74 | 1.7 | . | -1% | 2.8 | -3.0 | .
Cc1occc1C(=O)N(C)Cc1nc(-c2ccc(Cl)cc2)no1 | 0.64 | 12 | -3.1 | . | 2.1 | 0.3 | i
Cc1nc(CSc2nsc(/C=C/N(C)C)c2C#N)cs1 | 0.63 | 6.3 | -0.6 | 20% | 6.3 | 70* | i
CCOc1ccc(C2(C)CC(=O)N(C)C2=O)cc1 (stereo unspecified) | 0.68 | -3.2 | -1.1 | . | 2.2 | 2.1 | i
CCOC(=O)C(CCCOc1ccccc1)C(=O)OCC | 0.74 | -1.6 | . | -5% | -3.4 | -2.2 | .
O=C(Nc1ccc(Br)cc1)c1cccc(-n2cnnn2)c1 | 0.62 | -2.7 | -0.9 | . | 2.1 | 3.0 | i
Cc1ccc(CCNC(=O)Cc2ccc(NC3=NC4CS(=O)(=O)CC4S3)cc2)cc1 (stereo unspecified) | 0.79 | 3.7 | -1.6 | . | -0.1 | 0.7 | i
Cc1ccc(S(=O)(=O)N2C(=O)CCC2C(=O)N2CCCCC2)cc1 (stereo unspecified) | 0.68 | 3.6 | -4.4 | . | 2.6 | -1.6 | i
COc1ccc(N2CCN(CC(=O)c3c(C)n(C)c4ccc(OC)cc34)CC2)cc1 | 0.68 | 1.8 | 17 | 78% | 3.7 | -3.3 | i
CCCNc1ncnc2[nH]ncc12 | 0.68 | . | -3.6 | 4% | 3.8 | 0.3 | i
O=C(C(=O)N1CCN(c2ccccc2F)CC1)c1ccccc1 | . | . | -5.5 | . | . | -3.6 | i
Cc1cccc(-n2c(C)nc3cc(C(=O)NCC4CCCO4)ccc32)c1 (stereo unspecified) | 0.68 | 3.3 | -12 | -4% | 0.0 | -1.2 | i
COc1cccc(NC(=O)c2cc(-c3ccc(OC)cc3OC)nc3ccccc23)c1 | 0.68 | -4.5 | 0.4 | . | -20 | 0.7 | i
CN(C)S(=O)(=O)c1cccc(COc2cccnc2[N+](=O)[O-])c1 | 0.63 | 1.2 | -1.3 | 0% | 2.9 | -0.5 | i
COc1ccnc(N=CNOCc2cccc(Cl)c2Cl)c1C#N | 0.78 | 0.2 | . | -1% | -0.8 | -2.4 | .
COC(=O)CCC/C=C1/SCC(NC(=O)c2ccccc2)C1O (stereo unspecified) | 0.63 | -0.7 | -60 | 5% | -0.2 | 0.8 | i
CCCc1cc(C(=O)OC)c(NC(=O)OCC)s1 | 0.62 | -1.7 | 3.4 | -4% | 0.7 | 6.2 | i
O=S(=O)(O)c1ccc(SCc2ccccc2)nc1 | 0.7 | -3.3 | -3.2 | . | 3.8 | 0.6 | i
CCOC(=O)c1cc2c(nc1NC(=S)NCc1ccccc1)CCCC2 | 0.66 | 4.8 | -0.5 | . | -0.5 | 1.9 | i
CC(=O)c1sc(C(C)(C)C)cc1NC(=O)c1ccccc1C(=O)O | 0.66 | 3.1 | 1.1 | -60% | 1.1 | 4.6 | i
CCOC(=O)C1(C)CCCN1C(=O)c1ccc2ccccc2c1 (stereo unspecified) | . | . | -0.6 | . | . | 2.9 | i
COC(=O)CC1SC(=O)NC1=Nc1ccc(C)cc1 (stereo unspecified) | 0.66 | -0.9 | . | 19% | 2.7 | 0.1 | .
c1ccc(Oc2ncnc3sccc23)cc1 | 0.67 | -2.4 | -2.6 | -11% | 1.2 | 3.0 | i
Cc1[nH]c(=O)[nH]c1C(=O)CCCCC(=O)OCC(=O)Nc1ccccn1 | 0.65 | 0.1 | . | 18% | 2.2 | -0.9 | .
Cc1cc(-c2ccc(C)c(S(=O)(=O)Nc3cccc(CN4CCCC4)c3)c2)on1 | 0.69 | 7.6 | 1.2 | . | 0.2 | 0.2 | i
O=C(NCc1ccc(Cl)nc1)c1csc([C@@H]2O[C@H](CO)[C@H](O)[C@H](O)[C@H]2O)n1 | . | . | -5.8 | . | . | -2.6 | i
COc1cccc(NC=C2C(=O)OC(C)(C)OC2=O)c1 | 0.72 | 2.8 | . | 22% | 10.0 | -1.3 | .
CCN(CC(=O)NCc1cccs1)C(=O)c1ccc(S(=O)(=O)N(C)c2ccccc2)cc1 | 0.67 | . | -0.1 | -1% | 2.4 | 0.1 | i
CC1CCCN(S(=O)(=O)c2ccc(C(=O)Nc3ccccc3-c3nc4ccccc4[nH]3)cc2)C1 (stereo unspecified) | 0.66 | 3.1 | . | -10% | -9.8 | 0.7 | .
CCCCn1c(O)c(N=Nc2ccccc2O)c2ccccc21 | 0.69 | . | 9.0 | . | 4.0 | 84* | i
Cn1c(CNc2cccc(Cl)c2)nnc1SCC#N | . | 2.3 | -11 | 2% | . | 3.0 | i
N#Cc1ccc(-c2ccc(F)cc2)nc1Sc1ccc(F)cc1 | 0.68 | 4.4 | . | -3% | -2.0 | 2.3 | .
COc1ccc(C(=O)Nc2cc(Cl)ccc2OC(=O)c2ccc(OC)cc2)cc1 | 0.69 | 3.0 | . | -4% | 1.0 | 3.5 | .
O=C(N/N=C/c1cc(Cl)cc(Cl)c1O)c1ccncc1 | . | -55 | . | . | . | 4.1 | i
CCN(CC(=O)NCc1cccs1)C(=O)c1cc(S(=O)(=O)N2CCCCC2)ccc1Cl | 0.68 | 1.5 | 2.0 | -6% | -0.1 | 0.6 | i
Cc1cc(OCC(=O)N2CCCC2)ccc1Cl | 0.69 | -0.5 | . | 19% | 1.7 | 0.1 | .
O=C(Nc1ccc(OC(F)(F)F)cc1)Oc1ccccc1N1CCCCC1 | 0.61 | -0.3 | -8.4 | -3% | 1.7 | 1.3 | i
Fc1cccc(Cc2c(-c3ccccc3)nc3c(Cl)cc(C(F)(F)F)cn23)c1 | . | . | 2.0 | . | . | 5.4 | i
COc1ccc(OC)c(C=NNC(=O)NN=Cc2cc(OC)ccc2OC)c1 | . | . | -2.0 | 0% | . | 3.2 | i
COc1ccc(Cc2noc(CN(C)CCc3ccccc3)n2)cc1OC | 0.63 | -0.9 | -0.4 | . | 1.5 | 5.0 | i
CC(C)(C)OC(=O)N(CCc1ccccc1)Cc1ccccc1OCc1cccc(NC(=O)C2CCC2)c1 | . | . | -5.1 | 10% | . | 3.0 | .
Cc1cc(C)cc(OCCNS(=O)(=O)c2cccs2)c1 | 0.69 | -2.6 | 3.2 | -6% | 1.8 | 31 | i
COc1ccc(CNS(=O)(=O)c2cc3c(cc2Cl)NC(=O)CO3)cc1 | 0.7 | -2.0 | 4.0 | . | 0.2 | 4.6 | i
O=C(CN1c2ccccc2S(=O)(=O)c2ccccc21)Nc1ccccc1F | 0.65 | 0.0 | 2.0 | . | -0.6 | 0.5 | i
Cc1ccccc1NC(=O)Nc1ccc(C(F)(F)F)cc1 | 0.65 | 0.4 | 1.8 | 5% | 1.3 | -2.6 | i

Carrying on:
Compound | E coli growth | RanGTP-Imp inh | MLL AF4-AF9 inh | Vif A3G | UCH37 inh | HNF4A DNA FP | FGF22 binding
COCCCNCC(=O)Nc1sc(C)c(C)c1C(=O)OC | 0.7 | 1.5 | . | -1% | 4.6 | 5.5 | .
COc1cccc(NC(=S)NNC(=O)CCn2cc([N+](=O)[O-])cn2)c1 | 0.64 | 2.4 | -4.3 | . | -0.9 | -1.6 | i
Cc1ccc(OCCC(=O)OCC(=O)N2CCN(S(=O)(=O)c3ccc(C)cc3)CC2)cc1 | 0.73 | ? | -3.5 | 0% | -1.4 | -2.5 | i
Fc1cccc(Cn2cc(C(=S)N3CCCCC3)c3ccccc32)c1 | 0.72 | -1.9 | . | 0% | 2.7 | -1.8 | .
CCOC(=O)C[C@H]1c2cc(C(F)(F)F)ccc2S(=O)(=O)N1C(C)C | . | 5.8 | . | . | 2.0 | -3.7 | i
O=C(c1ccc(S(=O)(=O)NCC2CCCO2)cc1)N1CCc2ccccc21 (stereo unspecified) | 0.71 | 0.1 | . | ? | -0.1 | -2.1 | .
Cc1cc(C)c(NC2=NS(=O)(=O)c3ccccc32)c(C)c1 | 0.74 | 0.4 | . | 0% | 3.4 | -1.3 | .
N#CCCN(NC1=NS(=O)(=O)c2ccccc21)C(=O)c1ccccc1Br | 0.71 | 1.0 | . | -1% | 1.5 | 3.0 | .
Cc1ccn(-c2cc(O)c(-n3ccc(C)n3)cc2O)n1 | 0.7 | 7.6 | 0.2 | . | -10 | -3.7 | i
CC(C)(O)C(=O)N=Nc1c(O)[nH]c2ccccc12 | 0.69 | 1.8 | -0.4 | -2% | 7.0 | 0.5 | i
COc1cc(OC)c(C(=O)O/N=C(\N)c2ccccn2)cc1OC | 0.61 | 2.6 | -3.3 | -3% | 3.1 | 0.4 | i
CCCc1cc(=O)oc2cc(Oc3ncccn3)ccc12 | 0.74 | -1.4 | . | 0% | -60 | -3.5 | .
Nn1c(CSc2nc3ccccc3o2)nnc1CSc1nc2ccccc2o1 | 0.71 | . | . | 7% | 6.5 | -1.1 | .

Source: PubChem BioAssay (several laboratories)

The list is partial; count on the stated rates, not on these rows.
